From PubChem
HepG2 viability: HepG2 cell cytotoxicity, dose response, cytotoxicity control, ATP luminescence, cherry-pick, activator set 2 (AID 1053143). HepG2 viability, CellTiter-Glo ATP luminescence, 72 h. AC50 in µM for hits, for the others activity change, negative = cytotoxicity, % at the top dose, mostly 26 µM. 3,400 compounds, 3.7% hits;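 active = fitted AC50 at most twice the highest valid dose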;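 note: 0 = neutral control and -100 = positive control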
Numbers without * were called inactive.

SMILES | HepG2 viability
O=C(Cc1ccc(Cl)c(Cl)c1)NCC1(N2CCOCC2)CCCCC1 | 2.0%
COc1ccc(C2c3c(nc(C)[nH]c3=O)Oc3c2c(=O)oc2ccccc32)cc1 (centres undefined) | -7.1%
Cc1cccc(N=Nc2ccc(N(C)C)cc2)c1 | -0.8%
Cc1ccc(-c2nn(Cc3ccccc3)cc2C=O)cc1 | -13.5%

Looked up by compound from the list above (two):
SMILES | HepG2 viability
Cc1ccc(-c2nn(Cc3ccccc3)cc2C=O)cc1 | -13.5%
Cc1cccc(N=Nc2ccc(N(C)C)cc2)c1 | -0.8%

An excerpt; rates above refer to the full screens.
